# From PubChem
# TRPML1 inh = blocks the human TRPML1 channel | TRPML1-inducible cells, Ca2+ dye fluorescence, FDSS; stronger effect = lower value; inhibition of EC80 agonist-evoked calcium signal | activity change, negative = inhibition, % (test concentration not listed) | 390,000 tested, 0.02% active; in the data active means activity change below about -50%; inconclusive means about -30% to -50%; inactive means above about -30%;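 further: stimulus is agonist 54-4 at its EC80 concentration; on the % scale 0 is the no-effect control and ±100 the full control effect; compound concentration not given in the record; the text of the record puts the active cut at -80%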
#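 Calcium fluorescence in TRPML1-DL cells induced overnight with Tet: a 110 s read after compound pin addition, then a 110 s antagonist read after challenge with 54-4 at 4 uM final (EC80).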
# TRPV1 potentiator = human TRPV1 potentiation; potentiation, % at 8.33 µM; AID 540277; 320,000 tested, 0.02% active; Q8NER1; TRPV1-expressing cells, Fluo-8 calcium influx, capsaicin EC20 potentiation; host cell line not named in the record; control for the full effect not named in the record; active means potentiation above 80%; inconclusive means 30% to 80%; inactive means below 30%; further: 0% is about no effect
#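 Fluo-8 calcium influx in TRPV1-expressing cells, kinetic read (ex 480/em 520 nm). Compound added and read 3 min for agonist activity, followed by capsaicin at EC20 final and 2 min further read for enhancement.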
# D2 potentiator = human D2 receptor positive allosteric modulation. potentiation, % (no concentration beside the values). DiscoveRx D2 beta-arrestin cells, luminescence, 90 min; 100% = 57 uM dopamine signal. P14416. 360,000 tested, 0.23% active; active = potentiation of 50% or more; inconclusive = 30% to 50%; inactive = 30% or less;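 further: compound concentration not given in the record; tested on top of an EC20 dose of dopamine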
#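 D2 cells co-treated with compound plus 50 nM dopamine (EC20) for 90 min at 37 deg C to detect potentiation. Beta-arrestin recruitment was read as enzyme-fragment luminescence after 1 h at ambient temperature. Full response was set by 57 uM dopamine.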
# CtBP-E1A inh = blocks the CtBP interaction with E1A | activity change, % (no concentration beside the values) | 340,000 tested, 0.49% active | AlphaScreen GST-E1A/His-CtBP binding, 1536-well; stronger effect = lower value; control for the full effect not named in the record; in the data active means activity change below about -65%; inconclusive means about -30% to -65%; inactive means above about -30%; further: on the % scale 0 is the no-effect control and ±100 the full control effect; compound concentration not given in the record
#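 Protein mix (5X: 125 nM each GST-E1A, His-CtBP) was incubated with pinned compound 2 h at 37 deg C in dark, in 50 mM Tris pH 8.0 buffer with 300 mM NaCl. Glutathione donor and nickel acceptor beads followed; AlphaScreen signal read after 1 h.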
# TRPML1 ag = activates the human TRPML1 channel; Q9GZU1; TRPML1-expressing cells, Ca2+ dye fluorescence, FDSS; host cell line not named in the record; reference of the full effect not given here; activation, % (no concentration beside the values); 410,000 tested, 0.12% active; AID 624414; in the data active = activation above about 50%; inconclusive = about 30% to 50%; inactive = below about 30%; further: 0% is about no effect; the text of the record puts the active cut at 80%
#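 TRPML1-DL cells, Tet-induced overnight (~16 h, 37 degrees C), loaded 45-90 min at room temperature with Ca8 no-wash calcium dye plus quencher. FDSS fluorescence: 10 s baseline, compound pin-transfer, 110 s agonist read, then EC80 54-4 (4uM final) and 110 s antagonist read.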
# Six1-Eya2 blk = Six1/Eya2 interaction inhibition; 360,000 tested, 0.56% active; AlphaScreen GST-Six1/His-Eya2 binding, biochemical; stronger effect = lower value; control for the full effect not named in the record; activity change, % (no concentration beside the values); Q15475+O00167; AID 651725; in the data active = activity change below about -65%; inconclusive = about -30% to -65%; inactive = above about -30%; further: on the % scale 0 is the no-effect control and ±100 the full control effect; compound concentration not given in the record
# Target sequence (O00167 whole entry, looked up): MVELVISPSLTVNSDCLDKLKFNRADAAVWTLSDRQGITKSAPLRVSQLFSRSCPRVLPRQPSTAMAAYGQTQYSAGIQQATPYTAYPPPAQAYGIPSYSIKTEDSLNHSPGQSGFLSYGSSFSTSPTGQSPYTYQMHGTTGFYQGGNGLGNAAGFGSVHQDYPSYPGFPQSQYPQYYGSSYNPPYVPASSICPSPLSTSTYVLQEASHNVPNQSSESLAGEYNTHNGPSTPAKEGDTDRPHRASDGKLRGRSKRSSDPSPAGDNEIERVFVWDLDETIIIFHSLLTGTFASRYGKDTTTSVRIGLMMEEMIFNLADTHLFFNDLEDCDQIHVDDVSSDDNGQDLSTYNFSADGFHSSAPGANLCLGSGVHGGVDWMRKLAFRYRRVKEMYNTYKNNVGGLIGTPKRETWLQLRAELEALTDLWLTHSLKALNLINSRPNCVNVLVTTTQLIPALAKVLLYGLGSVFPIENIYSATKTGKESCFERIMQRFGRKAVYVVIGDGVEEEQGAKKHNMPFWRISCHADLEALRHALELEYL
# Target sequence (Q15475 whole entry, looked up): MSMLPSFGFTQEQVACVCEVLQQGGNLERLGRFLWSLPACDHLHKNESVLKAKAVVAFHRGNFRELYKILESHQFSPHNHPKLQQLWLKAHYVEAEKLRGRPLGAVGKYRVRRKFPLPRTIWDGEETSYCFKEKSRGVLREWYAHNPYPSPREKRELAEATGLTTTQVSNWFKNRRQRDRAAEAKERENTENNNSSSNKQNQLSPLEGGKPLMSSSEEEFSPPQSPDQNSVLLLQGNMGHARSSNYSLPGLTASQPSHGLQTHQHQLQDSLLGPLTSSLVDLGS
#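 Compounds are tested against tagged Six1 and Eya2 proteins bridged by glutathione donor and nickel acceptor beads; after a one-hour incubation at 37 °C without light, AlphaScreen emission is recorded.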
# * = called active by the depositor; ? = inconclusive; / = no result given; & = joins results of further samples.
canonical_smiles,TRPML1 inh,Six1-Eya2 blk,TRPML1 ag,D2 potentiator,CtBP-E1A inh,TRPV1 potentiator
COc1cccc(N(C(C)=O)C2=NCCCS2)c1,-2.8,-2.0,0.6,0.8,9.7,-0.2
O=C(c1ccc(F)cc1Cl)N1CCC2(CC1)OCCO2,20.6,2.2,0.0,-2.4,9.0,1.4
CCOC(=O)N(CC)c1ccc(C(O)(C(=O)OCC)C(F)(F)F)cc1 (stereo not drawn),10.9,-2.4,-1.0,-6.9,8.7,19.7
Cc1cc(S(=O)(=O)NCC(C)C)ccc1OCC(=O)N1CCN(Cc2ccccc2)CC1,21.5,11.0,0.2,-5.2,6.8,-8.6
Cn1cccc1CNCCc1ccc(F)cc1,11.9,-12.1,-0.2,-7.2,-16.1,2.2
CCCC1(CC(C)C)C(=O)NC(=S)NC1=O,-17.4,5.6,0.9,-14.9,-8.9,/
CSc1ncc(/C=C2/C(=O)NC(=O)N(c3ccc(C(C)C)cc3)C2=O)cn1,-0.1,4.3,-0.2,-15.4,1.8,5.2
NP(=O)(OCCCc1ccccc1)Oc1ccccc1 (stereo not drawn),-15.0,2.5,-0.6,-10.8,/,16.4
N#C/C=C/C#N,17.2,-6.5,-0.1,-1.2,2.0,8.6
CCN1CCN(c2nc([N+](=O)[O-])nn2C)CC1,14.0,-2.5,0.9,-2.2,6.3,20.0
O=C1CC(=O)N(c2cccc(Cl)c2)C(=O)N1,-8.6,-2.8,0.3,-16.9,2.8,6.8
COc1ccc(NC2Oc3cc4c(cc3C(c3cc(OC)c(OC)c(OC)c3)C2C)OCO4)cc1 (stereo not drawn),7.9,-16.2,2.1,-6.3,?,/
O=c1[nH]c(=O)n(CCc2ccccc2)c(O)c1C=NCCCn1ccnc1,-9.2,0.9,-0.5,-9.3,2.3,17.4
C(=NC12CN3CN(CN(C3)C1)C2)c1cccnc1,-2.9,4.4,0.1,3.5,-0.3,-7.7
CS(=O)(=O)N1CCN(C(=N)N[N+](=O)[O-])CC1,1.3,3.0,1.2,-2.3,4.8,-7.7

# The last 5 entries of the part above are carried over, then new ones follow.
canonical_smiles,TRPML1 inh,Six1-Eya2 blk,TRPML1 ag,D2 potentiator,CtBP-E1A inh,TRPV1 potentiator
O=C1CC(=O)N(c2cccc(Cl)c2)C(=O)N1,-8.6,-2.8,0.3,-16.9,2.8,6.8
COc1ccc(NC2Oc3cc4c(cc3C(c3cc(OC)c(OC)c(OC)c3)C2C)OCO4)cc1 (stereo not drawn),7.9,-16.2,2.1,-6.3,?,/
O=c1[nH]c(=O)n(CCc2ccccc2)c(O)c1C=NCCCn1ccnc1,-9.2,0.9,-0.5,-9.3,2.3,17.4
C(=NC12CN3CN(CN(C3)C1)C2)c1cccnc1,-2.9,4.4,0.1,3.5,-0.3,-7.7
CS(=O)(=O)N1CCN(C(=N)N[N+](=O)[O-])CC1,1.3,3.0,1.2,-2.3,4.8,-7.7
O=C(COc1ccc(Cl)cc1)N(c1ccc(Cl)cc1)C1CN2CCC1CC2 (stereo not drawn),-2.6,2.2,0.5,-15.1,-6.0,-1.7
CCCCn1c(O)c(C(CC)=NC(C)c2ccccc2)c(=O)[nH]c1=O (stereo not drawn),-6.1,-0.5,0.3,-5.1,-0.8,-9.5
CC(N)Cc1c[nH]c2ccc(Cl)cc12 (stereo not drawn),2.1,-2.1,-0.3,0.3,7.2,/
COc1cc(/C=N/NC(=O)CN2CC(c3ccccc3)CC2=O)ccc1OC(=O)N(C)C (stereo not drawn),-19.0,8.6,-0.3,1.5,-6.5,/
CN1CCN(c2ccc3c(c2)S(=O)(=O)c2ccccc2C3=O)CC1,4.1,1.9,0.5,-5.1,1.5,/
Cc1c(P(=S)(c2ccccc2)c2ccccc2)[n+]2ccccc2n1C,12.4,-0.2,-0.2,-3.4,-1.4,4.7
CCN1C(=O)NC(=O)/C(=C/c2cc(C)n(-c3sc(C)c(C)c3C#N)c2C)C1=O,13.0,-19.8,0.0,11.2,?,-26.1
CCOc1ccc(CN2CCCC(C(=O)c3ccccc3OC)C2)cc1 (stereo not drawn),-16.0,-5.7,-0.5,-21.0,-8.4,1.4
Cc1ccc(-n2c(O)c(C=NCc3cccnc3)c(=O)[nH]c2=O)cc1C,-10.7,-0.3,-0.7,-11.8,3.7,4.6
CC1(C)CN=C(NCc2ccccc2)S1,0.6,6.7,1.8,-1.0,5.1,/
O=P1(NCCCn2cc[n+](Cc3nc4ccccc4[nH]3)c2)C=C(c2ccccc2)OC(c2ccccc2)=C1,24.3,1.6,0.7,-7.6,-11.4,-1.3
COCCCn1c(N)c(C(=O)OCCOC)c2nc3ccccc3nc21,7.2,-9.8,-0.8,-11.4,-8.4,-12.4
Cc1nc2ccccc2c(=O)n1-c1nccs1,/,1.8,2.0,-3.0,-7.1,/
CCOC(=O)C(O)(c1ccc(NC(=S)NC(=O)c2ccc(Cl)cc2Cl)c(C)c1)C(F)(F)F (stereo not drawn),11.9,-4.9,21.9,-14.3,-3.5,-48.9
O=c1[nH]oc2c1CCNC2,-2.3,21.9,-0.3,-3.2,23.8,1.1

# Continued.
canonical_smiles,TRPML1 inh,Six1-Eya2 blk,TRPML1 ag,D2 potentiator,CtBP-E1A inh,TRPV1 potentiator
O=C(N/N=C/c1c(O)n(-c2cccc3ccccc23)c(=O)[nH]c1=O)c1ccncc1,-7.6,?,0.9,-5.1,?,10.9
COc1ccc(/C=C/C(=O)c2c(O)n(CCC3=CCCCC3)c(=O)[nH]c2=O)cc1OC,/,22.0,/,8.3,0.9,-0.1
Cc1ccccc1OP(=O)(Oc1ccccc1C)N1CCOCC1,/,2.5,-0.8,-4.1,0.7,/
CC(C)CCCn1c(O)c(/C=C2/C=CC=N2)c(=O)[nH]c1=O,-2.9,1.3,-0.4,8.3,5.2,-4.9
O=c1c2ccccc2[nH]c(=S)n1-c1cccc(C(F)(F)F)c1,-5.8,0.8,-1.0,-7.9,2.7,/
CO[C@H]1C=CCCC=CC(=O)O[C@H]([C@H](C)C(=O)CCCC2CC(=O)NC(=O)C2)C(C)=C[C@@H](C)[C@@H]1O,/,-16.0,-0.3,/,-10.1,/
CCCCCc1cc(O)c2c3c(c(=O)oc2c1)CN(C)CC3,-11.3,5.6,2.0,0.6,-1.1,0.7
O=C(Cc1ccccc1)Oc1cccc(-n2cnnn2)c1,12.1,-1.8,0.1,-3.6,2.1,5.8
COc1ccccc1OCC(=O)N1CCCC(N(C)Cc2ccccc2)C1 (stereo not drawn),10.1,4.7,0.3,-22.9,-5.5,-1.6
O=C(COc1ccccc1)N1CCN(C/C=C/c2ccccc2)CC1,3.4,-7.1,-0.7,-21.4,-5.6,-9.0
c1ccc(-c2nc(N3CCOCC3)s[n+]2-c2ccccc2)cc1,22.2,3.7,0.0,13.3,7.2,6.8
CCOCC(=O)NC1CCSC1=O (stereo not drawn),-23.5,-0.7,2.3,0.5,3.7,17.2
CCn1cc(C(=O)NCc2ccccc2)c2ccccc21,7.8,3.2,0.3,-19.6,-0.9,?
Cc1cc(CN(C)C)c(OC(=O)N(C)C)cc1C,44.7,0.9,-0.1,-2.4,2.8,22.3
CCCCC(=O)N/N=C/c1c(O)n(CCc2ccc(OC)c(OC)c2)c(=O)[nH]c1=O,20.3,4.9,0.5,-1.2,-7.5,16.9

# (list continues)
canonical_smiles,TRPML1 inh,Six1-Eya2 blk,TRPML1 ag,D2 potentiator,CtBP-E1A inh,TRPV1 potentiator
c1ccc(C2CC3CC(c4ccco4)N2O3)cc1 (stereo not drawn),10.6,0.8,-0.3,5.4,4.3,11.6
COC(=O)C1=C(c2ccc(OC)c(OC)c2)C[C@@H]2CC[C@H]1N2C(=O)N1CCc2cc(OC)c(OC)cc2C1,6.1,-7.8,0.0,2.6,-8.8,12.3
O=C(CF)NC(NC(=S)Nc1ccccc1O)C(Cl)(Cl)Cl (stereo not drawn),-29.9,-6.0,0.3,-4.8,-27.5,-8.6
CN(C(=O)CN1CC=C(c2ccccc2)CC1)c1c(N)n(Cc2ccccc2)c(=O)[nH]c1=O,6.2,0.7,2.1,9.3,/,6.7
O=C(COC(=O)c1ccc(O)cc1)Nc1ccc(Cl)cc1C(=O)c1ccccc1,23.3,-5.9,1.9,-1.9,-0.4,-5.3
CCOC(=O)CCN=Cc1c(O)n(-c2ccc(Br)cc2)c(=O)[nH]c1=O,-2.1,4.6,2.4,-1.6,1.5,/
CCOC(=O)c1c(NC(=O)c2c(N)n(CCCOC)c3nc4ccccc4nc23)sc2c1CCCC2,12.3,-5.5,0.2,-13.6,4.1,-3.7
O=C(c1cccnc1)c1cc2ccccc2[nH]1,-6.2,4.2,0.0,12.9,3.7,2.1
Cc1c(N=Nc2c(O)n(C)c(=O)n(C)c2=O)c(=O)n(-c2ccccc2)n1C,11.9,?,0.5,-19.1,0.6,14.3
C[C@]12CCC3C(CC[C@@H]4C[C@H](O)CC[C@]34C)C1CCC2=O (stereo partly drawn),-13.7,4.2,1.5,-9.1,6.0,/
COC1C(O)C(C)OC(OC2C(Oc3cccc4c(O)c5c(=O)oc6ccc(C)c7c(=O)oc(c34)c5c67)OC(C)C(O)C2O)C1O (stereo not drawn),-10.3,-20.5,3.5,-14.3,-7.6,/
COCCOC(=O)c1c(N)n(Cc2ccccc2)c2nc3ccccc3nc12,12.2,-2.6,-0.1,12.7,7.4,-18.9
COc1cc(Cn2c(N)c(C(=O)NCc3ccco3)c3nc4ccccc4nc32)cc(OC)c1OC,21.1,?,0.4,-5.3,?,-0.3
CCN(CC)C(=O)c1ccc(NC(=O)c2cccc(C(F)(F)F)c2)cc1,6.5,2.0,0.2,-5.1,0.0,-5.3
Fc1cccc(C2NCCc3[nH]cnc32)c1 (stereo not drawn),-7.0,-0.3,-1.2,-9.7,-21.6,-2.2

# Going on with the list.
canonical_smiles,TRPML1 inh,Six1-Eya2 blk,TRPML1 ag,D2 potentiator,CtBP-E1A inh,TRPV1 potentiator
COc1ccc(CCNC(=O)c2c(N)n(CCN3CCOCC3)c3nc4ccccc4nc23)cc1,-0.4,1.7,0.1,-12.7,6.7,-2.8
CCCCn1nnnc1C(CC)N1CCC2(CC1)C(=O)NCN2c1ccccc1 (stereo not drawn),/,9.0,-0.3,-13.6,0.8,/
CNC(=S)N/N=C1\C2CN3CCN(C2)CC1(c1ccccc1)C3,?,2.8,1.5,-14.4,4.5,-1.8
CC(=O)Nc1ccc([As](=O)(O)c2ccc([N+](=O)[O-])cc2)cc1,4.0,3.0,0.8,-3.4,6.2,-2.4
CCOc1ccc(-n2c(O)c(C=Nc3ccc(N(CC)CC)cc3)c(=O)[nH]c2=O)cc1,-12.3,-3.8,2.7,4.8,11.8,-9.1
O=S(=O)(c1ccccc1)N1CC1c1ccccc1 (stereo not drawn),6.4,-5.0,0.2,-10.0,1.5,7.5
Cc1c(C(c2ccc(Cl)cc2Cl)c2c(O)c3ccccc3oc2=O)c(=O)n(-c2ccccc2)n1C (stereo not drawn),21.6&15.7,1.5,0.9&0.8,-0.6,0.3,82.5*
OC(c1cccc(Cl)c1)(c1cccc(Cl)c1)C1CN2CCC1CC2 (stereo not drawn),-6.2,4.2,0.0,-19.9,5.7,-9.5

# These rows are one share of the data (hit frequency here may not be typical).
